MLL AF4-AF9 inh: inhibitors of human MLL-AF4/AF9 interaction. inhibition, % at 10 µM. P42568. AlphaScreen, biotin-AF4 peptide binding to FLAG-AF9. AID 651704. 0.47% of 350,000 active;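 active means every replicate reaching a set inhibition limit, whatever the replicate mean, cut at about 25% in these data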;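 further: 0% = plate neutral control median and 100% = total signal loss; the record names both 10 and 1 µM as test concentration; the first replicate is given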
Target sequence (P42568 whole entry, looked up): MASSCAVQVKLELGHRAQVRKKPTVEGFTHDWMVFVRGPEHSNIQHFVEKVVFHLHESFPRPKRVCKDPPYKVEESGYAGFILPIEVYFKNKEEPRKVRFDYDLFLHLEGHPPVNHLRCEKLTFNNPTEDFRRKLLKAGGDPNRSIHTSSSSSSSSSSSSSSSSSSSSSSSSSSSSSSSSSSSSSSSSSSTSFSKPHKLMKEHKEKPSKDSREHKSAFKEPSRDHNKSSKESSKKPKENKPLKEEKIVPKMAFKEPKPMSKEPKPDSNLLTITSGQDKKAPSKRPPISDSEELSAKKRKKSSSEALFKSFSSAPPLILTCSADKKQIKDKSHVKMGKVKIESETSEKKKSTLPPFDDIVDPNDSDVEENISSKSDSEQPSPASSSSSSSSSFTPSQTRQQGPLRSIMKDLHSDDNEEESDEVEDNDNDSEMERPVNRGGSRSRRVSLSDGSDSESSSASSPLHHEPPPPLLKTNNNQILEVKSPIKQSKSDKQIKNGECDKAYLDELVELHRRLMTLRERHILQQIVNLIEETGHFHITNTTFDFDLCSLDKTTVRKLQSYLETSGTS
rRNA inh HTS: inhibits bacterial ribosomal RNA function over humanized ribosomes. E. coli WT GFP vs humanized-ribosome RFP mutants, fluorescence, 24 h; hits give low values; DMSO median 0, no signal -100. GFP signal change (wild-type ribosome), % (test concentration not listed). 1.6% of 350,000 active. AID 720706;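 active means significant combined selectivity score with lowered wild-type GFP, culture density cut under 30%, mutant RFP and density less affected; inactive means any of these conditions unmet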; further: one replicate is shown; some compounds called inactive have numbers as strong as hits
rRNA inh HTS OD600: further read-out of rRNA inh HTS, marked with its call; OD600 change, %; measured here: OD600 growth;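 optical density of the mix in the first replicate; 0 = DMSO median and -100 = no signal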
rRNA inh HTS RFP: also measured in rRNA inh HTS; calls as there; RFP signal change, %; measured here: RFP humanized mutant strains;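 first replicate; 0 = DMSO median and -100 = no signal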
* marks the source's active call; other numbers are inactive results; & = joins results of further samples. Some of the compounds tested; count on the stated rates, not on these rows.

Results for COc1cc(C=NN=c2sc3ccccc3n2C)ccc1OCCO ?
MLL AF4-AF9 inh: -0.3; rRNA inh HTS: -1; rRNA inh HTS OD600: 6; rRNA inh HTS RFP: 1.7

Results for Cc1ccc(S(=O)(=O)Nc2ccc3c(c2)CC(=O)N([C@@H](C)CO)C[C@@H](C)[C@@H](CN(C)Cc2ccncc2)O3)cc1 ?
MLL AF4-AF9 inh: 0.2; rRNA inh HTS: 0; rRNA inh HTS OD600: -1; rRNA inh HTS RFP: -2.1

What do the screens show for `C[C@@H]1CN([C@@H](C)CO)S(=O)(=O)c2ccc(-c3cccc(C(=O)N(C)C)c3)cc2O[C@@H]1CN(C)C(=O)Nc1ccc(F)cc1`?
MLL AF4-AF9 inh: 2.0; rRNA inh HTS: -1; rRNA inh HTS OD600: 2; rRNA inh HTS RFP: -4.5

What do the screens show for `CNC[C@@H]1Oc2ncc(-c3ccc(F)cc3)cc2C(=O)N([C@H](C)CO)C[C@@H]1C`?
MLL AF4-AF9 inh: 0.9; rRNA inh HTS: 6; rRNA inh HTS OD600: 8; rRNA inh HTS RFP: -1.6

How did CCc1nc2c(OCc3ccc(C(F)(F)F)cc3)cccn2c1N(C)C(=O)c1ccc(C)cc1 do in these assays?
MLL AF4-AF9 inh: 4.3; rRNA inh HTS: 1; rRNA inh HTS OD600: -7; rRNA inh HTS RFP: 33

How did COc1ccc2c3c(n(C)c2c1)[C@@H](CO)N(C(=O)C1CC1)CC31CN(Cc2ccccc2OC)C1 do in these assays?
MLL AF4-AF9 inh: 24; rRNA inh HTS: -1; rRNA inh HTS OD600: -6; rRNA inh HTS RFP: 1.5

Results for C[C@H](CO)N1C[C@H](C)[C@@H](CN(C)C(=O)c2cccnc2)Oc2cc(C#CC3CC3)ccc2S1(=O)=O ?
MLL AF4-AF9 inh: 1.3; rRNA inh HTS: 0; rRNA inh HTS OD600: 0; rRNA inh HTS RFP: -1.3

How did O=C(C[C@H]1CC[C@H](NS(=O)(=O)c2ccc(F)cc2)[C@@H](CO)O1)NCc1ccc(Cl)c(Cl)c1 do in these assays?
MLL AF4-AF9 inh: -0.7; rRNA inh HTS: -18; rRNA inh HTS OD600: -38; rRNA inh HTS RFP: 0.8

What do the screens show for `CCN(CC)C(=O)c1ccc2nc([C@@H]3O[C@H](CO)[C@H](O)[C@H](O)[C@H]3O)[nH]c2c1`?
MLL AF4-AF9 inh: 0.0; rRNA inh HTS: 8; rRNA inh HTS OD600: 16; rRNA inh HTS RFP: -2.6

What do the screens show for `O=C(Nc1ccccc1)c1cc(C2CCCCN2S(=O)(=O)c2cccs2)on1` (configuration not stated)?
MLL AF4-AF9 inh: 2.9; rRNA inh HTS: -8; rRNA inh HTS OD600: -16; rRNA inh HTS RFP: 1.1

Results for CCCc1nc2ccc(C)cn2c1Cc1ccsc1 ?
MLL AF4-AF9 inh: -0.2; rRNA inh HTS: 12; rRNA inh HTS OD600: 15; rRNA inh HTS RFP: 0.8

How did O=C(Cc1ccccc1)N1CC[C@@H]2[C@@H](CO)Nc3ccc(-c4ccccc4)cc3[C@@H]21 do in these assays?
MLL AF4-AF9 inh: 8.6; rRNA inh HTS: -47; rRNA inh HTS OD600: -72; rRNA inh HTS RFP: -7.4

Results for C[C@@H]1CN([C@H](C)CO)C(=O)c2cc(C#Cc3cccnc3)cnc2O[C@H]1CN(C)Cc1ccccc1 ?
MLL AF4-AF9 inh: -0.5; rRNA inh HTS: -4; rRNA inh HTS OD600: -9; rRNA inh HTS RFP: 2.8

How did C[C@H](CO)N1C[C@H](C)[C@H](CN(C)CC2CC2)Oc2c(NC(=O)C3CCOCC3)cccc2C1=O do in these assays?
MLL AF4-AF9 inh: -2.8; rRNA inh HTS: 3; rRNA inh HTS OD600: 4; rRNA inh HTS RFP: -1.1

Results for C[C@H](NC(=O)C[C@@H]1CC[C@@H]2[C@H](COC[C@@H](O)CN2C(=O)Nc2cccc(F)c2)O1)c1ccccc1 ?
MLL AF4-AF9 inh: -1.8; rRNA inh HTS: -17; rRNA inh HTS OD600: -19; rRNA inh HTS RFP: 1.1

Results for O=C1c2ccccc2C(c2nnnn2Cc2ccccc2)N1CCOc1ccccc1 (configuration not stated) ?
MLL AF4-AF9 inh: -2.2; rRNA inh HTS: -17; rRNA inh HTS OD600: -14; rRNA inh HTS RFP: 1.9

Results for CC(C)Oc1cc(F)ccc1-c1cc(C(=O)Nc2ccc(F)cc2)[nH]n1 ?
MLL AF4-AF9 inh: 0.2; rRNA inh HTS: -8; rRNA inh HTS OD600: 0; rRNA inh HTS RFP: 5.0

How did COc1ccc2c3c([nH]c2c1)[C@H](CO)N(Cc1ccccc1F)CC31CCN(C(=O)C2CCOCC2)CC1 do in these assays?
MLL AF4-AF9 inh: 0.2; rRNA inh HTS: 4; rRNA inh HTS OD600: 2; rRNA inh HTS RFP: 4.7

What do the screens show for `Cc1ccc(-c2nc3cc(C)c(Br)c(C)n3c2Cc2ccsc2)cc1`?
MLL AF4-AF9 inh: 1.5; rRNA inh HTS: -13; rRNA inh HTS OD600: -16; rRNA inh HTS RFP: 9.0

What do the screens show for `O=C(NC1CCCC1)[C@H]1[C@H](CO)[C@H]2Cn3c(cccc3=O)[C@@H]1N2CC1CCCC1`?
MLL AF4-AF9 inh: -1.1; rRNA inh HTS: 2; rRNA inh HTS OD600: 2; rRNA inh HTS RFP: -1.7

What do the screens show for `C[C@@H]1CN([C@H](C)CO)C(=O)c2cc(C#CC3CCCCC3)cnc2O[C@H]1CN(C)C(=O)NC1CCCC1`?
MLL AF4-AF9 inh: -2.4; rRNA inh HTS: -2; rRNA inh HTS OD600: -15; rRNA inh HTS RFP: 7.1

How did Cn1c(=O)c2cc(NC(=O)OCCF)ccc2n1Cc1cccc(C(F)(F)F)c1 do in these assays?
MLL AF4-AF9 inh: -5.1; rRNA inh HTS: -3; rRNA inh HTS OD600: -7; rRNA inh HTS RFP: 1.6

How did COc1ccc(CN(C)C[C@H]2OCCCC[C@H](C)Oc3ccc(NC(=O)Nc4cccc5ccccc45)cc3C(=O)N([C@H](C)CO)C[C@@H]2C)cc1 do in these assays?
MLL AF4-AF9 inh: -6.2; rRNA inh HTS: 2; rRNA inh HTS OD600: 4; rRNA inh HTS RFP: 7.9

Results for Cc1noc(C)c1NC(=O)Nc1ccc2c(c1)CC(=O)N([C@H](C)CO)C[C@H](C)[C@@H](CN(C)S(=O)(=O)c1ccccc1)O2 ?
MLL AF4-AF9 inh: -25; rRNA inh HTS: 3; rRNA inh HTS OD600: 5; rRNA inh HTS RFP: -0.5

Results for N#Cc1ccc(-c2ccc(C3[C@@H]4CN(Cc5ccccc5F)C[C@H]3N4)cc2)cc1 (some centres not stated) ?
MLL AF4-AF9 inh: -1.2&5.6; rRNA inh HTS: -60&-61; rRNA inh HTS OD600: -76&-75; rRNA inh HTS RFP: -15&-12

Results for Cc1ccc(S(=O)(=O)Nc2ccc3c(c2)C(=O)N([C@@H](C)CO)C[C@H](C)[C@@H](CN(C)S(=O)(=O)c2ccc(C)cc2)OCCCC[C@H](C)O3)cc1 ?
MLL AF4-AF9 inh: -6.1; rRNA inh HTS: -3; rRNA inh HTS OD600: 2; rRNA inh HTS RFP: 0.5

What do the screens show for `Cc1ccc(S(=O)(=O)NCC[C@H]2CC[C@H](NC(=O)CC3CC3)[C@@H](CO)O2)cc1`?
MLL AF4-AF9 inh: -0.4; rRNA inh HTS: -5; rRNA inh HTS OD600: -6; rRNA inh HTS RFP: -1.5

Results for CN1C(=O)[C@@](O)(c2cn(C)c3ccccc23)c2cc(F)ccc21 ?
MLL AF4-AF9 inh: 2.4; rRNA inh HTS: 0; rRNA inh HTS OD600: 6; rRNA inh HTS RFP: 5.5

Results for COC(=O)c1cnc(Nc2nc(CN)cs2)nc1C(F)(F)F ?
MLL AF4-AF9 inh: 0.3; rRNA inh HTS: 27; rRNA inh HTS OD600: 11; rRNA inh HTS RFP: 9.8

Results for COc1ccc(NC(=O)Nc2cccc3c2O[C@H](CN(C)CC2CCCCC2)[C@H](C)CN([C@@H](C)CO)C3=O)cc1 ?
MLL AF4-AF9 inh: 3.2; rRNA inh HTS: 2; rRNA inh HTS OD600: 2; rRNA inh HTS RFP: -0.6

What do the screens show for `CCCN(CCC)c1cc(=O)nc2ccccn12`?
MLL AF4-AF9 inh: 0.5; rRNA inh HTS: 10; rRNA inh HTS OD600: 9; rRNA inh HTS RFP: -1.5

How did CO[C@@H]1CN(C)C(=O)c2cc(NC(=O)C3CC3)ccc2OC[C@@H](C)N(C(=O)c2ccccc2)C[C@@H]1C do in these assays?
MLL AF4-AF9 inh: -0.1; rRNA inh HTS: 1; rRNA inh HTS OD600: 4; rRNA inh HTS RFP: 0.2

What do the screens show for `COc1ccc(S(=O)(=O)N[C@H]2C=C[C@@H](CC(=O)O)O[C@@H]2CO)cc1`?
MLL AF4-AF9 inh: -0.5; rRNA inh HTS: 3; rRNA inh HTS OD600: -4; rRNA inh HTS RFP: -1.7

What do the screens show for `CNC(=O)C[C@H]1CC[C@@H]2[C@H](COC[C@@H](O)CN2C(=O)Nc2ccc3c(c2)OCO3)O1`?
MLL AF4-AF9 inh: 3.1; rRNA inh HTS: 4; rRNA inh HTS OD600: 13; rRNA inh HTS RFP: -2.0

Results for C[C@H](NC(=O)C[C@H]1C=C[C@H](NC(=O)c2cccnc2)[C@@H](CO)O1)c1ccccc1 ?
MLL AF4-AF9 inh: -8.1; rRNA inh HTS: 1; rRNA inh HTS OD600: 2; rRNA inh HTS RFP: 1.0

How did C[C@@H]1CN([C@@H](C)CO)C(=O)c2cccc(NC(=O)c3ccc(-c4nccs4)cc3)c2O[C@H]1CN(C)S(=O)(=O)c1ccc(F)cc1 do in these assays?
MLL AF4-AF9 inh: -1.8; rRNA inh HTS: -4; rRNA inh HTS OD600: -3; rRNA inh HTS RFP: -3.2

Results for CC(=O)N(C)C[C@H]1Oc2cc(-c3cccc(F)c3)ccc2S(=O)(=O)N([C@H](C)CO)C[C@@H]1C ?
MLL AF4-AF9 inh: 0.3; rRNA inh HTS: -3; rRNA inh HTS OD600: -8; rRNA inh HTS RFP: -2.8

Results for CCOC(=O)C1(C)CCCN(C(=O)c2ccc(N(C)C)cc2)C1 (configuration not stated) ?
MLL AF4-AF9 inh: 0.2; rRNA inh HTS: 5; rRNA inh HTS OD600: -4; rRNA inh HTS RFP: -0.6

Results for C/C=C/c1ccc([C@H]2[C@H]3CN(C(=O)Cc4cccnc4)CC(=O)N3[C@H]2CO)cc1 ?
MLL AF4-AF9 inh: 5.6; rRNA inh HTS: 4; rRNA inh HTS OD600: 29; rRNA inh HTS RFP: -1.2

Results for C[C@@H]1CN([C@H](C)CO)C(=O)Cc2cc(NC(=O)NC3CCCCC3)ccc2O[C@@H]1CN(C)S(=O)(=O)c1ccc(F)cc1 ?
MLL AF4-AF9 inh: 3.0; rRNA inh HTS: 0; rRNA inh HTS OD600: -9; rRNA inh HTS RFP: 1.9

What do the screens show for `C[C@@H]1CN([C@@H](C)CO)C(=O)Cc2cc(NC(=O)Nc3ccc(C(F)(F)F)cc3)ccc2O[C@H]1CN(C)Cc1ccc(C(F)(F)F)cc1`?
MLL AF4-AF9 inh: 1.5; rRNA inh HTS: 3; rRNA inh HTS OD600: 4; rRNA inh HTS RFP: -1.2

Results for CO[C@H]1CN(C)C(=O)c2cc(NC(=O)C3CC3)ccc2OC[C@H](C)N(Cc2cccc(F)c2)C[C@@H]1C ?
MLL AF4-AF9 inh: 11; rRNA inh HTS: -1; rRNA inh HTS OD600: -7; rRNA inh HTS RFP: 0.3

What do the screens show for `C[C@@H]1CN([C@H](C)CO)C(=O)c2cc(-c3cccc(C#N)c3)cnc2O[C@@H]1CN(C)C(=O)C1CCC1`?
MLL AF4-AF9 inh: -2.3; rRNA inh HTS: 5; rRNA inh HTS OD600: 9; rRNA inh HTS RFP: -1.8

How did Cc1cc(C(=O)Nc2cccc3c2O[C@H](CN(C)Cc2ccc4c(c2)OCO4)[C@@H](C)CN([C@H](C)CO)C3=O)n(C)n1 do in these assays?
MLL AF4-AF9 inh: -0.7; rRNA inh HTS: -4; rRNA inh HTS OD600: 1; rRNA inh HTS RFP: 0.9

What do the screens show for `O=C(Cc1ccncc1)NCC[C@@H]1CC[C@H](NC(=O)C2CCC2)[C@H](CO)O1`?
MLL AF4-AF9 inh: -1.9; rRNA inh HTS: -1; rRNA inh HTS OD600: 3; rRNA inh HTS RFP: -1.9

Some of these compounds in order of SMILES length, high to low.
Results for C[C@@H]1CN([C@H](C)CO)C(=O)Cc2cc(NC(=O)NC3CCCCC3)ccc2O[C@@H]1CN(C)S(=O)(=O)c1ccc(F)cc1 ?
MLL AF4-AF9 inh: 3.0; rRNA inh HTS: 0; rRNA inh HTS OD600: -9; rRNA inh HTS RFP: 1.9

How did CO[C@@H]1CN(C)C(=O)c2cc(NC(=O)C3CC3)ccc2OC[C@@H](C)N(C(=O)c2ccccc2)C[C@@H]1C do in these assays?
MLL AF4-AF9 inh: -0.1; rRNA inh HTS: 1; rRNA inh HTS OD600: 4; rRNA inh HTS RFP: 0.2

What do the screens show for `CNC(=O)C[C@H]1CC[C@@H]2[C@H](COC[C@@H](O)CN2C(=O)Nc2ccc3c(c2)OCO3)O1`?
MLL AF4-AF9 inh: 3.1; rRNA inh HTS: 4; rRNA inh HTS OD600: 13; rRNA inh HTS RFP: -2.0

What do the screens show for `COc1ccc(S(=O)(=O)N[C@H]2C=C[C@@H](CC(=O)O)O[C@@H]2CO)cc1`?
MLL AF4-AF9 inh: -0.5; rRNA inh HTS: 3; rRNA inh HTS OD600: -4; rRNA inh HTS RFP: -1.7
